Compound activity deposited in PubChem BioAssay by ICCB-Longwood Screening Facility, Harvard Medical School.
UCH37 DUB inh – inhibitors of human UCH37 deubiquitinase, primary screen, biochemical, Ub-AMC cleavage, fluorescence | purified proteasome/UCH37 | inhibition, % (no concentration beside the values) | 330,000 compounds, 0.33% hits;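 active = mean of two replicates above 20%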;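 note: 0% = compound-free wells with enzyme and 100% = wells lacking proteasome; stock transfer was 100 nL into about 20 µL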
Target sequence (Q9Y5K5 whole entry, looked up): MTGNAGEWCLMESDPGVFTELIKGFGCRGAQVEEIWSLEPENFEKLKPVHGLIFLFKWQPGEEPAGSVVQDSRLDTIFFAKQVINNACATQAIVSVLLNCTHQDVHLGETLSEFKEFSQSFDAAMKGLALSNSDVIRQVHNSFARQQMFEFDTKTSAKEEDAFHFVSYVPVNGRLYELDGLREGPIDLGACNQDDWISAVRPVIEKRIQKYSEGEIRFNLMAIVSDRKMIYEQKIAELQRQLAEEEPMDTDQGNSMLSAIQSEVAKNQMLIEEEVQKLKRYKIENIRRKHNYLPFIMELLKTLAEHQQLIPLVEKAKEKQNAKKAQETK
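Reagent: Ub-AMC substrate; assay system: Proteasome-associated human UCH37 deubiquitinase; controls: no-proteasome and no-compound wells; read-out: % inhibition of Ub-AMC cleavage fluorescence; timing: 30 min preincubation with enzyme, 25 min cleavage at room temperature; signal: AMC fluorescence from Ub-AMC cleavage, excitation 355 nm, emission 460 nm; buffer or medium: Tris-HCl pH 7.4 plus ovalbumin, ATP-MgCl2, DTT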
Ecoli growth – E. coli growth inhibition, primary screen, OD600. Escherichia coli growth, 23 h; active compounds read low. OD600 absorbance (concentration not given with the values). 330,000 compounds, 0.21% hits;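 active = OD600 absorbance below the run mean of sample wells minus 3.6 SD, in any replicate, cut at about 0.56 in these data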;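 note: stock transfer was 300 nL into about 60 µL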
* hit, by the source's call. Not all compounds are listed. The share of hits here may be higher or lower than overall.

SMILES	UCH37 DUB inh	Ecoli growth
COC(=O)c1ccc(-c2ccc(C=NN3C(=O)C4C5C=CC(CC5)C4C3=O)o2)cc1 (centres undefined)	-1.6	0.72
Clc1cccc(C=NNc2nccs2)c1	3.0	0.62
CCn1c(SCC(=O)NN=Cc2ccc(C)o2)nnc1-c1ccc(C(C)(C)C)cc1	6.8	0.73
CCc1ccc(-n2c(C)cc(C=NNC(=O)OC)c2C)cc1	3.5	0.72
CCc1ccc(OCC(=O)NN=Cc2ccc(OS(=O)(=O)c3ccc(C)cc3)c(OC)c2)cc1	1.6	0.67
O=C(Cn1cncn1)NN=Cc1ccc(Cl)cc1	1.4	0.7
O=C(CNc1cccc2ccccc12)NN=Cc1cccc(Oc2ccccc2)c1	-0.2	0.74
O=[N+]([O-])c1cccc(-c2ccc(C=NNC(=S)NCc3ccco3)o2)c1	5.6	0.71
O=C(NN=Cc1ccccn1)c1cccc(NC(=O)c2ccc(Cl)cc2)c1	-5.0	0.62
S=C(NCC1CC1)NN=Cc1ccccc1Cl	7.0	0.65
CC1SC(=NN=Cc2cccc([N+](=O)[O-])c2)N(C(C)(C)C)C1=O (centres undefined)	-0.6	0.71
Clc1cccc(C=NN2CCN(Cc3ccccc3)CC2)c1	5.6	0.66
CC(C)(C)c1cc(C(=O)NN=Cc2ccc(O)cc2)n(-c2ccccc2)n1	-0.3	0.7
Oc1ccc(C=NNc2ccc(C(F)(F)F)cn2)cc1O	-13	0.64
CC(=NNC(=O)CCC1C(=O)NN=C1C)c1ccc(Cl)cc1 (centres undefined)	-0.4	0.68
COC(=O)c1ccc(COc2ccccc2C=NNC(=O)c2cccnc2)cc1	3.7	0.72
Cc1ccc(C=NNC(=O)c2cc(C3CC3)nc3ccccc23)o1	4.6	0.68
Cc1ccc(C=NNC(=O)c2cccc(NC(=O)c3ccccc3C)c2)o1	5.4	0.64
C(=Nn1cnnc1)c1cccs1	6.0	0.7
Cc1ccsc1C=NNC(=O)c1c[nH]c2ccccc12	7.9	0.67
CC(=NNC(=S)NCc1ccccc1)c1ccc(Br)cc1	6.3	0.73
CN(N=Cc1cccnc1)c1cnn(-c2ccc(F)c(Cl)c2)c(=O)c1Cl	-18	0.75
CN(C)c1c([N+](=O)[O-])cc(N2C(=O)C=CC2=O)cc1[N+](=O)[O-]	4.2	0.68
COc1ccc(C(C)=NNC(=O)CNC(=O)/C=C/c2ccccc2OC)cc1	-8.5	0.62
CCOc1cc(C=N/N=C2/NC(=O)C(CC(=O)O)S2)ccc1OCc1ccccc1Cl (centres undefined)	10	0.72
CCSc1ncc(C=NNc2ccc(F)cc2)n1C	0.5	0.78
CC(=O)Nc1ccc(C=NNC(=O)c2cccs2)cc1	-47	0.68
COc1cc(C=NNC(=S)NCCc2ccccc2)cc(OC)c1OC	5.3	0.68
CCOc1ccccc1N(CC(=O)NN=C(C)c1cccc(Br)c1)S(C)(=O)=O	0.2	0.67
Cc1cccc(-c2n[nH]c(=S)n2N=Cc2ccco2)c1	6.1	0.66
CCc1ccccc1NC(=O)CSc1nc2n[nH]c(C)c2c(=N)n1-c1ccc(OC)cc1	2.7	0.71
Cc1ccc(CN2CCN(N=Cc3ccc(C(=O)O)cc3)CC2)cc1	1.1	0.68
Cc1cccc(NC(=O)COc2ccc(Br)cc2C=NO)c1	3.8	0.67
COc1ccc(C=NNC(=O)CNS(=O)(=O)c2ccc(C)cc2)cc1	-0.1	0.63
CCn1ncc(C=NNC(=O)COc2ccccc2)c1C	-0.3	0.69
COc1cc(C=NNC(N)=O)cc(Br)c1OCc1ccccc1C	-0.1	0.73
Cc1ccc(S(=O)(=O)Oc2ccccc2C=NO)cc1	-0.2	0.65
Cc1ccc(S(=O)(=O)NN=Cc2cc3c(cc2Br)OCO3)cc1	2.5	0.69
O=C(NN=Cc1ccco1)c1cc(-c2cccc3ccccc23)n[nH]1	2.1	0.65
O=C(NN=Cc1ccccc1O)C1SCCCS1	-36	0.71

Compounds listed so far that have a COOH group (two):
SMILES	UCH37 DUB inh	Ecoli growth
CCOc1cc(C=N/N=C2/NC(=O)C(CC(=O)O)S2)ccc1OCc1ccccc1Cl (centres undefined)	10	0.72
Cc1ccc(CN2CCN(N=Cc3ccc(C(=O)O)cc3)CC2)cc1	1.1	0.68

Next section
SMILES	UCH37 DUB inh	Ecoli growth
CCOC(=O)NN=C(C)/C=C/c1ccco1	8.4	0.73
Cc1cc(C)n(N=Cc2c(O)ccc3ccccc23)c(=O)c1C(N)=O	5.4	0.73
COc1cc(C=NNC(=O)c2ccc(CN3c4cccc5cccc(c45)S3(=O)=O)cc2)cc(OC)c1O	-15	0.7
N#CCCn1cc(C=NNC(N)=S)c(-c2ccc(-c3ccccc3)cc2)n1	2.1	0.71
COc1ccc(C(=O)NN=Cc2c(C)nn(-c3ccccc3)c2OC)cc1	6.5	0.66
O=C(ON=Cc1ccc(Cl)cc1)C1CCCCC1	3.2	0.65
COc1ccc(NC(=O)C2CC(=O)N/C(=N/N=Cc3ccco3)S2)cc1 (centres undefined)	5.3	0.64
O=C(NN=Cc1ccccn1)c1cc(-c2ccc3ccccc3c2)n[nH]1	-0.8	0.71
O=C(NN=Cc1ccc(Cl)cc1)C(=O)N1CCCCCC1	1.0	0.7
CCC(=NNC(=O)c1ccoc1C)c1ccc(C)o1	-0.1	0.65
Cn1ccc(C(=O)NN=Cc2c[nH]c3ccccc23)n1	7.5	0.66
CC(=O)Nc1ccc(C(C)=NNC(=O)c2ccncc2)cc1	1.8	0.69
COC(=O)NN=Cc1ccc(-c2ccc(Cl)cc2Cl)o1	2.8	0.66
CCCCn1c(N=Cc2ccc(N(C)C)cc2)nc2ccccc21	3.7	0.73
CC(=NN=C(c1ccccc1)c1ccccc1)c1ccco1	4.8	0.69
C/C(C=NNC(=O)c1cc(C(C)C)[nH]n1)=C\c1ccccc1	7.0	0.67
CN(C(=NS(=O)(=O)c1ccccc1)C(F)(F)F)c1ccccc1	1.5	0.71
CCc1[nH]nc(C(=O)NN=Cc2ccncc2)c1C	3.0	0.7
CCOc1cc(C=NNC(=O)c2nnn(-c3nonc3N)c2C)ccc1OCc1cccc(F)c1	-14	0.74
CC(=NNC(=O)c1ccc(Cl)cc1)c1cccnc1	0.8	0.64
COc1cc(C=NNC(=O)C2c3ccccc3Oc3ccccc32)ccc1O	-1.5	0.76
CN(C)c1ccc(C=NNc2cccc(C(=O)O)c2)cc1	7.5	0.66
S=c1[nH]nc(-c2ccco2)n1N=Cc1ccc(Br)s1	5.7	0.7
COc1[nH]c(N=Cc2ccccc2)c(C#N)c1C#N	5.0	0.63
Cc1cc(=O)oc2cc(OCC(=O)NN=Cc3cc([N+](=O)[O-])ccc3O)ccc12	8.3	0.69
O=C(NN=C/C=C/c1ccco1)c1cccc([N+](=O)[O-])c1	4.4	0.64
COc1cccc(C=NNC(=O)C(=O)N2CCCC2)c1O	5.6	0.72
COc1ccc(C=NNC(=O)c2cccc(NC(=O)c3ccccc3)c2)c(C(=O)O)c1OC	4.8	0.67
CCn1c(SCC(=O)NN=Cc2ccc(C)s2)nc2ccccc21	5.3	0.65
CC(=NNC(=O)c1nc2ccccn2c1C)c1ccc2c(c1)OCO2	1.0	0.67
CC(CCC1CC(C)OC1=O)=NNC(N)=O (centres undefined)	2.0	0.66
Nc1nnnn1N=Cc1cc(Cl)ccc1O	-11	0.62
O=C(CSc1ncccn1)NN=Cc1cccc(OC2CSC2)c1	3.2	0.68
CN(C)S(=O)(=O)c1ccc(N2CCCC2)c(C(=O)Nc2ccccc2N2CCOCC2)c1	3.6	0.65
CCOc1cc(C=NNC(=O)C(C)Sc2ccccn2)ccc1O (centres undefined)	3.2	0.64
CC1CCCC(C)N1N=C/C=C/c1ccccc1[N+](=O)[O-] (centres undefined)	2.9	0.7
Cc1nn(Cc2ccccc2)c(C)c1C=NNC(=O)c1ccccc1O	-3.1	0.65
O=C(CSc1nc2ccccc2n1Cc1ccccc1)NN=Cc1ccco1	3.3	0.64
CC(=NN(C)C)c1ccc(OCCOc2ccc([N+](=O)[O-])cc2)cc1	2.6	0.67
O=C(Cc1ccccc1)NN=Cc1cc(Br)cs1	3.8	0.66

Laid out differently: 4 of the compounds above
SMILES | UCH37 DUB inh | Ecoli growth
Cc1nn(Cc2ccccc2)c(C)c1C=NNC(=O)c1ccccc1O | -3.1 | 0.65
O=C(CSc1nc2ccccc2n1Cc1ccccc1)NN=Cc1ccco1 | 3.3 | 0.64
CC(=NN(C)C)c1ccc(OCCOc2ccc([N+](=O)[O-])cc2)cc1 | 2.6 | 0.67
O=C(Cc1ccccc1)NN=Cc1cc(Br)cs1 | 3.8 | 0.66

Next part.
SMILES	UCH37 DUB inh	Ecoli growth
COc1ccc(C=NNC(=O)CCn2cnc(-c3ccccc3)c2-c2ccccc2)cc1	2.6	0.71
Cc1n[nH]c(C)c1CCC(=O)NN=Cc1c(C)[nH]c2ccccc12	6.0	0.71
Cc1cc(O)c(C=NNc2ccc(Cl)cc2)c(=O)o1	7.2	0.65
CCOc1ccc(-c2c(C(=O)NN=Cc3cccnc3)nnn2-c2nonc2N)cc1	4.0	0.73
CCC(=O)NN=C(C)CC(=O)Nc1cccc([N+](=O)[O-])c1	2.2	0.68
Cc1ccn2c(C(=O)NN=Cc3cccs3)c(C)nc2c1	15	0.67
Cc1ccc(C=NNC(=O)C(O)c2ccccc2)o1 (centres undefined)	5.1	0.69
Cc1nnc(SCc2cc(=O)[nH]c(N=C(N)Nc3ccccc3Sc3ccccc3)n2)s1	1.9	0.72
O=C(CN1CCCCCCC1)NN=Cc1ccc([N+](=O)[O-])o1	9.1	0.62
CC(C)(C)c1ccc(C=NNC(=O)CN2CCS(=O)(=O)CC2)cc1	4.2	0.7
CC1CCCC(C)N1N=Cc1ccccc1OC(F)F (centres undefined)	1.8	0.67
Cc1ccc(C=NNC(=O)CSc2nnc(-c3ccc(Cl)cc3)n2-c2ccc(Cl)cc2)o1	3.3	0.69
Cc1c(N2C(=O)CSC2=NN=Cc2ccccc2O)c(=O)n(-c2ccccc2)n1C	2.8	0.68
O=C(O)c1ccc(NN=Cc2ccc(-c3cccc(Cl)c3)o2)cc1	-56	0.7
Cc1ccc(NC(=O)COc2ccc(C=NNC(=O)CSCc3ccccc3)cc2)cc1	-6.0	0.68
COc1ccc(-c2cc(C(=O)NN=C(C)c3cccnc3)c3ccccc3n2)cc1	-48	0.7
CC1CCCC(C)N1N=Cc1cccc([N+](=O)[O-])c1 (centres undefined)	-0.1	0.65
CCCOc1ccc(CNC(=S)NN=Cc2ccc([N+](=O)[O-])cc2)cc1	8.4	0.66
Cc1cc(C)n2nc(SCC(=O)NN=Cc3ccccc3F)nc2n1	0.1	0.66
CCC(C)=NNS(=O)(=O)c1ccc(C)c([N+](=O)[O-])c1	1.0	0.69

Exported with bars between the fields: six of the compounds above.
smiles | UCH37 DUB inh | Ecoli growth
CCCCn1c(N=Cc2ccc(N(C)C)cc2)nc2ccccc21 | 3.7 | 0.73
CCOc1ccccc1N(CC(=O)NN=C(C)c1cccc(Br)c1)S(C)(=O)=O | 0.2 | 0.67
CCc1ccc(-n2c(C)cc(C=NNC(=O)OC)c2C)cc1 | 3.5 | 0.72
Cc1cc(=O)oc2cc(OCC(=O)NN=Cc3cc([N+](=O)[O-])ccc3O)ccc12 | 8.3 | 0.69
Cc1ccc(CN2CCN(N=Cc3ccc(C(=O)O)cc3)CC2)cc1 | 1.1 | 0.68
CCOc1cc(C=NNC(=O)C(C)Sc2ccccn2)ccc1O (centres undefined) | 3.2 | 0.64

More entries.
SMILES	UCH37 DUB inh	Ecoli growth
COc1ccccc1OCC(=O)NN=C1SCC(=O)N1Cc1ccccc1	3.8	0.7
CC(CC(=O)Nc1cccc(C(F)(F)F)c1)=NNC(=O)C1CCCCC1	4.3	0.7
CC(=NNC(=O)c1cccs1)c1ccc2c(c1)OCO2	-13	0.64
CC(C)c1ccc(C=NNC(=O)c2nnn(-c3nonc3N)c2CSC2=NCCS2)cc1	3.6	0.73
Cc1ccc(S(=O)(=O)N=c2scc(C)n2C)cc1	-0.1	0.71
COc1cc(C(=O)NN=Cc2ccc(OC(=O)c3ccccc3)c(OC)c2)ccc1O	4.2	0.71
COc1ccc(CC2S/C(=N/N=Cc3ccc(O)cc3)NC2=O)cc1 (centres undefined)	6.6	0.72
CC(=O)N1CCC2(CC1)CC(=NNC(=S)Nc1ccc(C)cc1)c1cc(O)ccc1O2	-50	0.67
COc1cc(C=NNc2nc(C)cc(=O)[nH]2)ccc1O	9.6	0.67
COc1cccc(C=c2sc3nc(-c4cccs4)nn3c2=O)c1OC	-2.0	0.68
Cc1ccc(-c2nnc(SCC(=O)NN=Cc3ccccc3C(=O)O)n2-c2ccc(Cl)cc2)cc1	0.7	0.67
O=c1c2ccccc2nc(COc2ccccc2)n1N=Cc1cc([N+](=O)[O-])ccc1O	5.1	0.63
O=C(CON=Cc1cccc([N+](=O)[O-])c1)Nc1ccc2ccccc2c1	1.4	0.69
Fc1ccc(COc2ccc(Cl)cc2C=NNc2nc(N3CCCC3)nc(N3CCCC3)n2)cc1	3.6	0.74
Cc1ccc(S(=O)(=O)N2CCN(C3CCN(Cc4ccccc4)CC3)CC2)cc1	-0.1	0.68
COc1ccc(C=Nn2nnnc2N)cc1OC	-14	0.64
CC(CC(=O)Nc1ccccc1-c1ccccc1)=NNC(=O)COc1ccc(C)cc1Br	2.7	0.69
O=C(O)c1ccc(NN=Cc2cc(Br)cs2)cc1	9.0	0.65
COc1ccc(C(=O)Oc2cc(C=NNS(=O)(=O)c3ccccc3)ccc2OC)cc1	2.0	0.75
CCOc1ccc(C=NNc2cc(N3CCOCC3)nc(C)n2)c(O)c1	1.2	0.65
Cc1ccc(NN=C2CS(=O)(=O)N(C)c3ccsc32)cc1	-1.4	0.66
CC(=NNC(=O)CSc1nc2ccccc2n1C)c1ccco1	-0.5	0.7
